Screening results: PubChem BioAssay, several laboratories
Bead autofluor – counter-screen for toxin protease inhibitors: compound fluorescence | 3.1% of 360,000 active | AID 624483 | compound autofluorescence counterscreen, microsphere flow cytometry; active compounds read high | fluorescence intensity (concentration not given with the values);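 active means at least 3 SD above the mean of all compounds, about 16000 in these data; inconclusive means too few beads counted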;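 further: 100 nL of 1 mM stock went into each well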
BJeLR lethal – BJeLR cell viability loss; BJeLR (HRASV12) viability, CellTiter-Glo ATP luminescence, 48 h; reference of the scale not given here; inhibition, % (test concentration not listed); 0.17% of 300,000 active; AID 1554;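 active means replicate mean above 50%; inconclusive means above 50% but judged a plate artefact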;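 further: 50 nL library stock added to about 25 µL; numbers are from one replicate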
Sa RN4220 lethal – kills Staphylococcus aureus RN4220; S. aureus RN4220 growth, OD600, 16 h; inhibition, % (no concentration beside the values); 0.33% of 330,000 active;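 active means z-score of -3 or lower and OD600 up to 0.18 on both plates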;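 further: plate controls were untreated cells for no effect and reference antibiotic for full effect; stock transfer was 100 nL into about 80 µL; one replicate is shown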
Mtb hypoxia inh – reduces hypoxia-regulated biosensor signal in M. tuberculosis; 0.1% of 300,000 active; M. tuberculosis hypoxia-regulated fluorescent reporter, fluorescence; fluorescence inhibition, % (no concentration beside the values);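 active means 35 to 45% if threefold the growth effect, above 45% if 1.5-fold the growth effect; inactive means the rest, general growth blockers included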;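 further: wells of about 50 µL received 100 nL stock; 0% = vehicle wells and 100% = reference inhibitor wells; whole bacteria with a GFP reporter of the hypoxia response; strong numbers were not always called active; many hits fall short of the cut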
Sa ugtP lethal – kills S. aureus RN4220 lacking UgtP; S. aureus RN4220 ugtP deletion, OD600 growth, 16 h; some inactives read as strong as hits; growth inhibition, % (concentration not given with the values); 0.54% of 330,000 active; AID 1259309;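 active means z-score under -3 and OD600 up to 0.15 on both plates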;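 further: plate controls were untreated wells for no effect and antibiotic for full effect; wells of about 80 µL received 100 nL stock; the first replicate is given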
PrP UTR inh – inhibition of PrP 5' UTR reporter expression. 0.35% of 340,000 active. AID 488862. cell-based PrP 5' UTR mRNA reporter, plate reader. inhibition, % (test concentration not listed);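 active means every replicate at 50% or more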;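 further: 0 = median of the neutral control wells; tested in H4 reporter cells; numbers are from one replicate; inactives centre near -14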
Mtb hypoxia inh growth – second read-out of Mtb hypoxia inh, no call of its own (marks repeat the call); growth inhibition, %; measured here: M. tuberculosis growth (absorbance);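 0% = vehicle and 100% = reference antibiotic; read after six days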
Active calls of the source: *; ? = inconclusive; · = no result given.

SMILES	Bead autofluor	BJeLR lethal	Sa RN4220 lethal	Mtb hypoxia inh	Mtb hypoxia inh growth	Sa ugtP lethal	PrP UTR inh
Cc1cc(C(=O)O/N=C(\N)c2ccncc2)ccc1[N+](=O)[O-]	5361	-2	2.4	-11	-13	2	-43
O=C(O)Cc1cc2c(s1)CCCCC2	3457	-3	4.8	·	·	0	-7
O=C(CN1CCN(c2ccccn2)CC1)Nc1nc2ccccc2s1	4082	-2	-0.4	5	-5	1	-31
O=C(COc1ccc(Cl)cc1Cl)N(C1CCCCC1)C1CCS(=O)(=O)C1 (stereo not drawn)	5406	·	5.6	-3	-5	-6	-6
N#Cc1c(NC(=O)CSc2ncn[nH]2)sc2c1CCCC2	3804	0	7.2	11	12	-15	68*
O=C(NN=C/C=C/c1ccc2c(c1)OCO2)C1COc2ccccc2O1 (stereo not drawn)	·	·	3.1	2	5	5	·
Cc1ccc(-c2nn(-c3ccccc3)cc2C2CC(c3cccs3)=NN2C(=O)CCC(=O)O)cc1 (stereo not drawn)	2624	-2	5.7	2	8	17	-23
CCOc1ccc(NC(=S)N(CCc2c(C)[nH]c3ccc(C)cc23)Cc2ccco2)cc1	6503	-5	-1.1	6	3	9	5
CCC1(CC)SC(N)=NC1=O	3501	·	5.5	12	7	12	-12
CN(CC1CCCN(CCc2cccc(C(F)(F)F)c2)C1)C(=O)c1ccco1 (stereo not drawn)	4380	8	2.8	2	-3	11	5
CCC(=O)Nc1cccc(C2=NOC3(C2)C[C@@H](C(N)=O)N(C(=O)C2(C)CC2)C3)c1 (stereo partly drawn)	4044	2	·	·	·	·	-17
Cc1[nH]c(=O)c(Cc2ccccc2)c(O)c1C#N	3587	-6	2.1	-1	-2	2	-13
O=C(Nc1cccc(C(F)(F)F)c1)c1c(O)c2ccccc2[nH]c1=O	3726	-7	3.6	12	5	6	-20
Cc1cccc(N/N=C/c2ccc(C)s2)c1	3442	-11	·	·	·	·	-53
O=C(NCC1CCCO1)c1csc(Nc2cccc3ccccc23)n1 (stereo not drawn)	4076	2	5.8	17	0	-4	-42
CCOc1ccc(NC(=O)C2CCC(C)(C(=O)O)C2(C)C)cc1 (stereo not drawn)	2396	-3	6.1	8	8	-5	-13
COc1ccccc1NS(=O)(=O)c1cc(C(=O)NCC(c2ccc(F)cc2)N2CCOCC2)ccc1C (stereo not drawn)	·	10	1.2	0	3	3	-1
OCC1(C2=NOC(O)(C(F)(F)F)C2)CCCCC1 (stereo not drawn)	5179	-12	3.3	5	7	-3	-19
O=C(Cn1cnc2cc([N+](=O)[O-])ccc2c1=O)Nc1ccc2c(c1)OCO2	2647	5	-6.7	-7	18	3	-10
COc1ccc(CCC(=O)N2CCN(S(=O)(=O)c3cccc(C(F)(F)F)c3)CC2)cc1OC	6831	·	8.9	7	4	11	-20
Cc1oc(-c2ccccc2F)nc1CSCC(=O)NC1CCCC1	5261	6	2.6	14	7	7	-36
Cn1nc(C(=O)OCC(=O)Nc2ccc(C(N)=O)cc2)c2ccccc2c1=O	4208	·	3.4	9	25	4	-2
C/C(=N/NC(=O)CCCOc1ccc(Cl)cc1Cl)c1ccc(C)o1	2627	-5	·	·	·	·	-40
Cc1ccccc1CNCc1cccnc1	2406	2	2.5	9	2	-3	2
Cc1nnc(NC(=O)CSc2nnc(-c3ccccc3)n2C)s1	2409	-7	2.0	6	0	2	5
CC(CC(=O)Nc1ccc(F)cc1)=NNC(=O)COc1ccccc1	·	·	4.4	8	3	2	·
CC(=O)N1CCN=C1SCc1ccc(Br)cc1	5306	8	-4.0	·	·	14	-7
COc1cc(C(=O)NN=Cc2ccccc2)c([N+](=O)[O-])c(OC)c1OC	·	·	-1.3	6	3	-3	·
O=[N+]([O-])c1cc([N+](=O)[O-])c(N2CCOCC2)cc1NCc1ccccc1	3743	-8	-0.1	5	6	-10	-15
Cc1cc(Nc2ccccc2Br)n2nc(C)nc2n1	4347	-6	-0.3	·	·	-11	6
CCOCCCNC(=O)CCc1ccc(-n2cnc3cccnc32)cc1	3973	1	2.0	-7	-8	5	19
Cc1csc(SCc2c(C(=O)O)oc3ccccc23)n1	4082	12	4.7	7	-1	3	-24
O=C(NCCc1cccs1)C12CN(Cc3ccccc3)CC1C(c1cccc([N+](=O)[O-])c1)=NO2 (stereo not drawn)	3521	-13	2.9	5	8	-14	-21
CN(CC(=O)Nc1ccc(Cl)cc1)C(=O)C1CCCC1	·	·	-0.2	1	0	2	0
Cc1ccc(C(=O)N/C(=C/c2ccccc2)C(=O)NCc2ccncc2)cc1	6146	5	0.6	3	3	3	·
COc1cc(-c2noc(C3CCCN(S(=O)(=O)c4cccc(Cl)c4)C3)n2)cc(OC)c1OC (stereo not drawn)	12445	-5	7.9	4	3	8	-28
Cc1ccc(NC(=O)CN(C)C(=O)CCOc2cccc(C)c2)cc1	2153	-4	2.3	8	9	4	-28
Cc1ccc(S(=O)(=O)Nn2c(C)ccc2C)cc1	5011	2	1.8	·	·	-4	-16
CCCCC(=O)NCc1ccc2c(c1)cc(C)n2C	10959	-3	4.6	10	5	2	-27
CCCn1nc(C(=O)NNC(=O)CCCOc2ccc(OC)cc2)c2ccccc2c1=O	3232	·	4.1	8	8	6	-21
CCN1CCN(C(=O)c2ccc(COc3ccc(Cl)cc3)o2)CC1	3183	-1	-8.4	10	0	0	-11
N#CCCN(C(=O)COC(=O)Cc1c[nH]c2ccccc12)c1ccccc1	5567	7	0.0	-3	9	-3	-10
O=C(CCCOc1ccc(Br)cc1)Nc1ccc(S(=O)(=O)N2CCOCC2)cc1	·	-8	-4.2	2	2	4	-22
CC(=O)N1CCN(c2nnnn2-c2ccccc2)CC1	3219	-5	-10.0	-3	-7	-1	-17
CCOc1ccc(NS(=O)(=O)c2ccc(C(=O)NCc3cccnc3)cc2)cc1	?	-9	2.0	-4	-3	16	-21
CN(C)CCn1c2c(c(SCC(=O)Nc3cccc(C(F)(F)F)c3)nc1=O)CCCC2	?	12	1.6	6	5	-4	-7
O=C(COC(=O)c1ccc(F)cc1F)Nc1ccc(Cl)cn1	3064	·	0.5	8	7	0	-7
Cc1ccc(C(=O)NNC2=Nc3cccc4cccc2c34)cc1	10032	-6	0.2	-2	-5	-12	-20
Cc1nc2ccccc2c(=O)n1N=Cc1ccc(O)cc1	·	·	3.0	2	-3	-8	·
Cc1ccc(C(=O)COC(=O)CSc2cccc3cccnc23)c(C)c1	3460	11	7.6	·	·	11	-11

In another format: 4 of the compounds above
Cc1ccc(C(=O)COC(=O)CSc2cccc3cccnc23)c(C)c1
  Bead autofluor: 3460; BJeLR lethal: 11; Sa RN4220 lethal: 7.6; Mtb hypoxia inh: ·; Mtb hypoxia inh growth: ·; Sa ugtP lethal: 11; PrP UTR inh: -11

CCOc1ccc(NC(=S)N(CCc2c(C)[nH]c3ccc(C)cc23)Cc2ccco2)cc1
  Bead autofluor: 6503; BJeLR lethal: -5; Sa RN4220 lethal: -1.1; Mtb hypoxia inh: 6; Mtb hypoxia inh growth: 3; Sa ugtP lethal: 9; PrP UTR inh: 5

O=C(NCCc1cccs1)C12CN(Cc3ccccc3)CC1C(c1cccc([N+](=O)[O-])c1)=NO2 (stereo not drawn)
  Bead autofluor: 3521; BJeLR lethal: -13; Sa RN4220 lethal: 2.9; Mtb hypoxia inh: 5; Mtb hypoxia inh growth: 8; Sa ugtP lethal: -14; PrP UTR inh: -21

CCOCCCNC(=O)CCc1ccc(-n2cnc3cccnc32)cc1
  Bead autofluor: 3973; BJeLR lethal: 1; Sa RN4220 lethal: 2.0; Mtb hypoxia inh: -7; Mtb hypoxia inh growth: -8; Sa ugtP lethal: 5; PrP UTR inh: 19

The list goes on.
SMILES	Bead autofluor	BJeLR lethal	Sa RN4220 lethal	Mtb hypoxia inh	Mtb hypoxia inh growth	Sa ugtP lethal	PrP UTR inh
CSCCC(N=C1NS(=O)(=O)c2ccccc21)C(=O)N1CCCC(C(N)=O)C1 (stereo not drawn)	6504	-9	4.7	7	-1	1	-6
O=C(CNC(=O)C(c1ccccc1)c1ccccc1)N/N=C\c1ccc2c(c1)OCO2	1906	3	·	·	·	·	-12
O=Cc1cn(Cc2c(F)cccc2Cl)nc1-c1ccccc1	4309	8	6.5	-1	5	7	-25
COC(=O)Nc1c(C)n(C)n(-c2ccccc2)c1=O	4202	9	2.1	1	-4	8	-6
CCc1ccc(NC(=O)C(C)OC(=O)c2cc(=O)[nH]c3ccc(S(=O)(=O)Nc4ccc(F)cc4)cc23)cc1 (stereo not drawn)	2190	-10	4.9	12	-3	0	-27
CN1CCN(C(=O)c2ccc(-n3cccc3)cc2)CC1	20993*	19	4.3	3	-3	9	-8
COc1cc(NC(=O)c2cc(-c3ccccc3Cl)on2)cc(OC)c1OC	4372	27	0.9	10	-2	12	-13
CCC(C)NS(=O)(=O)c1ccc(OCC(=O)N2CCN(CC)CC2)cc1 (stereo not drawn)	5481	3	1.4	5	3	0	-11
Cc1nnc(NC(=O)c2sc3ccccc3c2Cl)s1	4658	5	24	·	·	23	-53
O=C(O)c1cccc(CSc2nnc(-c3ccco3)o2)c1	5168	-6	4.7	2	-2	-2	-17
Cc1cc(C(=O)COC(=O)/C=C/c2cccc(F)c2)c(C)n1C	4747	-1	6.8	6	3	5	-14
COc1ccccc1C(=O)NCC(=O)N/N=C/c1cccc(Cl)c1	2109	0	·	·	·	·	-16
COc1ccccc1CN1CCN(Cc2ccc(Cl)cc2)CC1	2116	14	2.9	11	-1	8	-32
CCCCOc1ccc(N(CC(=O)NCCOC)C(=O)CCC(=O)Nc2ccccn2)cc1	3083	-7	-1.1	-5	-12	0	-5
O=C(Cn1ncc2c3ccccc3n(Cc3ccccc3)c2c1=O)NCCCN1CCCC1=O	4361	4	4.9	-4	-8	10	0
COC(=O)c1ccc(Nc2nc(C)cc(C)n2)cc1	5060	-8	-0.1	·	·	7	-15
O=S(=O)(c1ccc(=S)[nH]c1)N1CCCC1	3989	·	-2.2	-9	4	-4	-14
Cc1cccc(-c2nnc3sc(-c4ccccc4C)nn23)c1	16434*	7	31	14	7	-31	-10
C/C(=N\OC(=O)c1ccc(F)cc1)c1sc(-c2ccccc2)nc1C	4214	4	·	·	·	·	-55
CCN(CC)C(C(=O)NC1CCCCC1)c1ccc(C)cc1 (stereo not drawn)	4555	11	-0.1	-4	7	7	-19
Cc1cccc(SCc2noc(C(=O)NC(C)C)c2C(=O)O)c1	3645	2	·	·	·	·	-12
COc1ccc2nc(N3CCCC(C(=O)NCCCN4C(C)CCCC4C)C3)sc2c1 (stereo not drawn)	6056	12	3.6	-4	-2	9	-6
CC1Nc2nc(N(C)C)[nH]c(=O)c2NC1C (stereo not drawn)	2495	·	4.4	2	6	-2	-1
O=c1ccc2cc(S(=O)(=O)N3CCN(c4ccccc4)CC3)ccc2o1	2209	-6	1.4	·	·	3	-13
O=c1[nH]c(=O)n(-c2cc(Br)c(O)c(Br)c2)cc1Br	·	10	15	3	-8	6	-16
CC(=O)c1c(C)[nH]c(C(=O)N2CC(C)CC(C)C2)c1C (stereo not drawn)	3905	-1	4.1	-2	-2	3	4
CCCCCCc1c(C)[nH]c2nc3ccccc3n2c1=O	3042	-12	1.3	14	-2	-1	-11
CCOc1ccccc1NC(=O)c1cc(CC(C)C)oc1C	4014	-4	1.7	16	6	59	-17
Cc1ccc(C)n1-c1sc2c(c1C#N)CCCC2	3561	-2	6.2	·	·	15	-20
CCC(Sc1ncnc2c1c(-c1ccccc1)cn2-c1ccc(OC)cc1)C(=O)OC (stereo not drawn)	2590	0	1.8	-2	-2	31	0
COc1ccc(NC(=O)C2CCN(C(=O)c3cccs3)CC2)c(OC)c1	6397	-20	5.6	8	3	1	-31
COC(=O)c1cccc(COC(=O)c2ccccc2NC(=O)c2ccco2)c1	7290	2	3.0	6	2	0	-6
Cc1c(C(=O)Nc2ccc3c(c2)OCCO3)oc2ccc(Br)cc12	6420	·	-5.9	15	7	4	-32
CC(O)[C@H]1CNC(=O)C(=O)N1CCC12CC3CC(CC(C3)C1)C2 (stereo partly drawn)	4078	6	·	·	·	·	-12
O=C(CSc1nnc(-c2ccccc2O)n1Cc1ccccc1)NNC(=O)c1ccccc1O	2148	-3	7.9	-6	-6	-13	-13
COc1ccc(-c2nc(C#N)c(NCc3ccc(C)cc3)o2)cc1OC	2931	-4	-17	15	10	-2	-11
Cc1nn(CC(=O)Nc2cc(S(=O)(=O)N(C)C)ccc2Cl)c(C)c1[N+](=O)[O-]	2571	3	1.6	-2	-4	8	1
